# NPYLR7 ag – activates Aedes aegypti NPYLR7 receptor; activation, % at 10 µM; 0.15% of 270,000 active; HEK293T NPYLR7/Galpha15, GCaMP6s calcium fluorescence; in the data active = activation above about 40%;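 note: 0% = vehicle and 100% = reference agonist at the receptor; some compounds past the cut are filed as inactive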
# NPYLR7 ag max-min – recorded beside NPYLR7 ag, whose call it bears; activation, %; measured here: Max-Min RFU normalised activation; some inactives read as strong as hits;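 span of the calcium signal over five minutes; 0% = vehicle and 100% = native peptide agonist; compound fluorescence can raise it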
# Numbers without * were called inactive. A portion of the library; the hit share may differ from the screen's.
[1] CCOC(=O)c1nc2ccccc2nc1N1CCCN(S(=O)(=O)c2ccc(Br)cc2)CC1
[2] CC(C)COc1nc(-c2ccc3c(c2)OCO3)n(-c2ccc(NCC(O)Cc3ccccc3)cc2)n1 (stereo not given)
[3] C=C(N=C(O)C(=C)N=C(O)c1csc(C2=N[C@@H]3c4csc(n4)C4N=C(O)c5csc(n5)C(C(C)(O)C(C)O)N=C(O)C5CSC(=N5)/C(=C\C)N=C(O)C(C(C)O)N=C(O)c5csc(n5)[C@@]3(CC2)N=C(O)C(C)N=C(O)C(=C)N=C(O)C(C)N=C(O)C(C(C)CC)NC2C=Cc3c(C(C)O)cc(nc3C2O)C(=O)OC4C)n1)C(=N)O (stereo not given in full)
[4] COc1ccc2c(c1)CC(C(=O)N(C)Cc1ccco1)CO2 (stereo not given)
[5] O=C(NC1CCCC1)N1CCN(C(c2ccccc2)c2ccc(Br)cc2)CC1 (stereo not given)

entry no.,1,2,3,4,5
NPYLR7 ag,4,-2,-6,5,25
NPYLR7 ag max-min,2,3,-2,3,29

[6] O=C(Nc1nnc(SCc2ccc(Cl)cc2Cl)s1)c1ccc(F)cc1
[7] CC(Sc1nnc(-c2ccccc2)n1C)c1nnc(-c2ccccc2)o1 (stereo not given)
[8] Cn1ccnc1CN(CC1CCC(N)CC1)C1CC1 (stereo not given)
[9] O=C1C(=O)N(C2CCCC2)C(=O)N1CN1CCCC1c1cccs1 (stereo not given)
[10] CN1CCN([C@H]2CN(C(=O)CCCc3ccccc3)C[C@@H]2O)CC1

entry no.,6,7,8,9,10
NPYLR7 ag,0,1,0,6,-4
NPYLR7 ag max-min,-2,8,-6,8,-4

[11] Cc1ccccc1N1CCN(c2ccc(S(N)(=O)=O)cn2)CC1
[12] CC(C)(C)Nc1c(-c2cccs2)nc2ccc(Br)cn12
[13] COc1ccc(CN2C[C@H](O)[C@@H](N3CCN(c4ccccn4)CC3)C2)cc1C
[14] O=C(COC(=O)c1cccc(NC(=O)c2ccccc2Br)c1)c1ccccc1
[15] CC(C)CCNC(=O)CSc1nnc(-c2ccc(Cl)cc2)n1C

entry no.,11,12,13,14,15
NPYLR7 ag,-5,1,4,-1,-2
NPYLR7 ag max-min,-9,13,2,-6,-3

[16] O=C(c1ccccc1)c1c(Cl)cccc1Cl
[17] Cc1ccc2c(c1)CCCN2C(=O)CN(C)CCc1cn[nH]c1
[18] O=C(CCc1ccccn1)NCc1ccc(Br)c(F)c1
[19] CCCn1c(C2CC(=O)N(c3ccccc3F)C2)nc2ccccc21 (stereo not given)
[20] CN1CCN(Cc2cccnc2N)CC1C(=O)O (stereo not given)

entry no.,16,17,18,19,20
NPYLR7 ag,0,-6,0,-3,17
NPYLR7 ag max-min,0,-10,-1,23,13

[21] CSc1nnc(CN2CCSC(C)C2c2ccccc2)s1 (stereo not given)
[22] O=C(Cc1ccccn1)NCC1CC(=O)N(C2CC2)C1 (stereo not given)
[23] Nc1cc(-c2ncccc2C(=O)N2C[C@H]3CC[C@@H]2C3)c2cc[nH]c2n1
[24] O=S(=O)(c1ccc2[nH]c(=S)[nH]c2c1)N1CCOCC1
[25] COc1ccc(CNC(=O)NCc2ccc(N3CCOCC3)nc2)cc1

entry no.,21,22,23,24,25
NPYLR7 ag,22,1,7,-2,5
NPYLR7 ag max-min,4,-2,7,-7,5

[26] CCOC(=O)C(CC)Sc1nnc(NC(=O)c2ccc(Cl)cc2Cl)s1 (stereo not given)
[27] CCN(C)c1nc(-c2ccccc2)nc2c1CN(C(=O)c1ccc(-c3ccccc3)cc1)CC2
[28] O=C(NCCCn1nc(-c2ccncc2)ccc1=O)c1ccc(F)c(F)c1
[29] CC1CCN(C(=O)COc2ccc(-c3nccn3C(C)C)cc2)CC1
[30] CC(C)Cc1nc(-c2ccc(CN3CCN(C(=O)c4ccc(Cl)c(F)c4)CC3)cc2)no1

entry no.,26,27,28,29,30
NPYLR7 ag,2,0,14,1,-4
NPYLR7 ag max-min,6,8,4,-3,-3

[31] CCOC(=O)C(Cc1cccc(N2CCN(C(=O)OC(C)(C)C)CC2)c1)OC (stereo not given)
[32] COc1cc(C2CC(=O)c3cnn(-c4nc(C)cc(C)n4)c3C2)cc(OC)c1OC (stereo not given)
[33] Cc1cc(C)c(NC(=O)CN(C)C(=O)c2cc3c(C)nn(CC(C)C)c3s2)c(C)c1
[34] Cc1ccc2nc(N(CCCN(C)C)C(=O)c3ccco3)sc2c1
[35] CC(=O)N(CC1=CCCN(Cc2c[nH]c(=O)[nH]c2=O)C1)C(C)C

entry no.,31,32,33,34,35
NPYLR7 ag,-1,-2,0,-2,12
NPYLR7 ag max-min,3,-4,24,-1,10

[36] CNS(=O)(=O)c1cccc(C(=O)OCc2cc(C)c(C(=O)OC)o2)c1
[37] CN(C)NC(=O)C(F)(F)C(F)(F)C(F)(F)F
[38] CC(=O)c1ccc(S(=O)(=O)NCCn2nc(-c3ccc(Cl)cc3)ccc2=O)cc1
[39] O=C(COc1cccc(Cl)c1)N1CCC(Cc2ccc(C(F)(F)F)cc2)CC1
[40] COCCOC(=O)N1CCC(c2nn(C)c(=O)n2-c2ccccc2)CC1

entry no.,36,37,38,39,40
NPYLR7 ag,4,5,1,1,6
NPYLR7 ag max-min,0,1,-2,-5,4

[41] Cc1ccc(CNC(=O)CSc2nc(=O)n(N3CCN(C)CC3)c3c2CCC3)cc1
[42] O=C(C(c1ccccc1)c1ccccc1)N1CCc2nc(Cc3cccc(F)c3)nc(N3CCOCC3)c2C1
[43] O=C(NC(=S)Nc1ccccc1F)c1ccco1
[44] CCOC(=O)C(=NNc1cccc([N+](=O)[O-])c1)C(=O)OCC
[45] Cc1ccccc1Cn1cc(NS(=O)(=O)c2cn(C)nc2C)cn1

entry no.,41,42,43,44,45
NPYLR7 ag,-1,-1,-1,-7,4
NPYLR7 ag max-min,-4,6,10,-10,3

# Reformatted as labelled records: 4 of the compounds above
[24] O=S(=O)(c1ccc2[nH]c(=S)[nH]c2c1)N1CCOCC1
  NPYLR7 ag: -2
  NPYLR7 ag max-min: -7
[16] O=C(c1ccccc1)c1c(Cl)cccc1Cl
  NPYLR7 ag: 0
  NPYLR7 ag max-min: 0
[5] O=C(NC1CCCC1)N1CCN(C(c2ccccc2)c2ccc(Br)cc2)CC1 (stereo not given)
  NPYLR7 ag: 25
  NPYLR7 ag max-min: 29
[29] CC1CCN(C(=O)COc2ccc(-c3nccn3C(C)C)cc2)CC1
  NPYLR7 ag: 1
  NPYLR7 ag max-min: -3

# (list continues)
[46] CCOC(=O)CCCC(=O)N1CCC(c2nc(-c3ccccc3)no2)CC1
[47] Cc1c(Cl)cccc1NC(=O)COc1cc(=O)n2ccccc2n1
[48] CCN1CCCC1CNC(=O)Nc1sc2c(c1C(N)=O)CCCC2 (stereo not given)
[49] CCc1nnc2n1Nc1nc3ccccc3nc1S2
[50] COc1ccc(C(=O)c2c(N)c(C#N)c3ccccn23)cc1

entry no.,46,47,48,49,50
NPYLR7 ag,23,-9,0,7,-1
NPYLR7 ag max-min,14,-7,-3,5,5

[51] N#Cc1cccc(OCCN2CCNC(=O)CC2c2ccccc2)c1 (stereo not given)
[52] O=C(CSc1n[nH]c(-c2ccccc2)n1)c1ccccc1
[53] Cn1cc(NC(=O)N2CCC(CN3CCCC3)CC2)ccc1=O
[54] CC(=NCCN1CCN(C(=O)c2ccccc2)CC1)c1c(C)[nH]n(-c2nc3ccccc3s2)c1=O
[55] N#Cc1ccccc1OC(C(=O)NC1CC1)c1ccc(F)cc1 (stereo not given)

entry no.,51,52,53,54,55
NPYLR7 ag,1,18,4,-13,9
NPYLR7 ag max-min,-2,11,3,-20,9

[56] Cc1ccc(C)c(-c2csc(NC(=O)Cn3cnc4sc(C)c(C)c4c3=O)n2)c1
[57] COc1cccc2c(SCC(=O)NC(C)C)nccc12
[58] C[C@H](c1ccccc1)N(CC(N)=O)CC(=O)NCc1ccc(Cl)s1
[59] O=C(O)c1ncc(Cl)c(Cl)c1Cl
[60] Cc1nn(C)c(C)c1CCC(=O)N(Cc1cccnc1)C1CCCCC1

entry no.,56,57,58,59,60
NPYLR7 ag,2,-3,-1,-6,15
NPYLR7 ag max-min,1,-4,1,-12,10

[61] Cc1occc1-c1nnc(SCC(=O)c2c(N)n(C3CC3)c(=O)[nH]c2=O)n1C
[62] CCOC(=NC1CC1)NC(=O)c1ccc(C(F)(F)F)cc1
[63] COc1ccc(-c2cc(C(=O)O)c3[nH]c(-c4ccccc4)nc3n2)cc1OC
[64] O=C(NCC1CCCO1)c1cccnc1N1CCN(C(=O)COCc2ccccc2)CC1 (stereo not given)
[65] CCN(CC)c1onc(-c2ccc(F)cc2)c1CN(CCCOC)C(=O)c1cccc(OC)c1

entry no.,61,62,63,64,65
NPYLR7 ag,4,-1,-1,-1,3
NPYLR7 ag max-min,1,4,-2,3,16

# One compound at a time (already shown).
# `COc1ccc(CN2C[C@H](O)[C@@H](N3CCN(c4ccccn4)CC3)C2)cc1C` in the list: NPYLR7 ag = 4; NPYLR7 ag max-min = 2
# `CN1CCN([C@H]2CN(C(=O)CCCc3ccccc3)C[C@@H]2O)CC1` in the list: NPYLR7 ag = -4; NPYLR7 ag max-min = -4

# The list goes on:
[66] CCC1c2ccsc2CCN1CCS(=O)(=O)c1ccc(Cl)cc1 (stereo not given)
[67] CC(OC(=O)c1ccn[nH]1)c1ccc(C(C)(C)C)cc1 (stereo not given)
[68] Cc1nc([N+](=O)[O-])cn1CCCCN1C(=O)c2ccccc2C1=O
[69] COc1ccc(NC(=O)c2c(N)c(C(=O)c3ccc4c(c3)CCCC4)n3ccccc23)cc1
[70] CCc1nn2c(N)c(C#N)nnc2c1-c1ccccc1

entry no.,66,67,68,69,70
NPYLR7 ag,8,9,0,-3,-11
NPYLR7 ag max-min,6,8,-2,-5,-17

[71] C=C1C[C@@]23CC4C5[C@@]6(C)C[C@H](O)C[C@@]57C2[C@H](O)[C@@H]1[C@H](O)[C@H]3[C@H]7N4C6
[72] Cc1ccc(C)c(CN2N=C(C(C)(C)C)Cn3c2nc2c3c(=O)n(C)c(=O)n2C)c1
[73] CNC(=O)[C@H]1CN(C(=O)N2CCOCC2)[C@]2(C)C(=O)Nc3ccccc3[C@H]12
[74] COCCCN(CC(=O)N1CCc2sccc2C1COc1cccc(OC)c1)C(=O)c1cccc(OC)c1 (stereo not given)
[75] O=C1c2ccccc2C(=O)c2c(Sc3ccccc3)cccc21

entry no.,71,72,73,74,75
NPYLR7 ag,0,4,35,-2,11
NPYLR7 ag max-min,0,0,35,5,8

[76] CC(C)C1CN(C(=O)NCCC2CCN(C)CC2)CCS1 (stereo not given)
[77] CCCN(CC(=O)N(CCc1c[nH]c2ccccc12)Cc1ccc(OC)cc1)C(=O)C(C)C
[78] COC(=O)c1cn([C@H]2CO[C@H]3[C@@H]2OC[C@@H]3NCc2cccc(C#N)c2)nn1
[79] CCOC(=O)c1nn(-c2ccccc2C)c(=O)cc1N1CCC(Cc2ccccc2)CC1
[80] Cc1ccc(-n2c(CCN3CCOCC3)n[nH]c2=S)cc1

entry no.,76,77,78,79,80
NPYLR7 ag,-3,-3,-8,7,5
NPYLR7 ag max-min,-3,2,-14,2,3

[81] C=CCN(Cc1ccccc1Cl)C(=O)CCN(C)S(C)(=O)=O
[82] CC(=O)N[C@@H]1C[C@H](Cc2ccccc2)O[C@H](c2c(C)nn(C)c2Cl)C1
[83] CCc1nn(-c2ccccc2C)c(CC)c1C(=O)N1CCOCC1
[84] COc1ccc(CC(=O)NCc2cccnc2N(C)C)cc1OC
[85] CCN(CC)c1onc(-c2ccccc2)c1CN(CCN(C)C)C(=O)c1cccs1
[86] CCC(C)N(CC(=O)N(CCc1ccc(OC)c(OC)c1)Cc1ccco1)C(=O)Nc1ccccc1F (stereo not given)
[87] CCCCOCCCNC(=O)c1cnc2c(-c3cccc(Cl)c3)cnn2c1C
[88] Cc1cccc(COC(=O)c2nnn(-c3ccc(C)c(F)c3)c2C)c1

entry no.,81,82,83,84,85,86,87,88
NPYLR7 ag,8,1,-1,17,5,-4,15,-3
NPYLR7 ag max-min,-2,-1,11,4,3,-2,10,-7

# High-throughput results as filed in PubChem.
